Screens from PubChem BioAssay.
VDR inh: blocks the human vitamin D receptor; VDR-SRC2-3 peptide fluorescence polarization, 2 h; Potency, µM, for inactives: max response, negative = inhibition, hits mostly inhibitors; actives 0.93% (n = 400,000); AID 504847; active means well fitted inhibition curve with a large enough effect; inconclusive means small, poorly fitted or top-dose-only effect, or another doubt; inactive means no such curve, though single readings can be large or run the other way; further: series mostly up to about 120 µM
Target sequence (P11473 whole entry, looked up): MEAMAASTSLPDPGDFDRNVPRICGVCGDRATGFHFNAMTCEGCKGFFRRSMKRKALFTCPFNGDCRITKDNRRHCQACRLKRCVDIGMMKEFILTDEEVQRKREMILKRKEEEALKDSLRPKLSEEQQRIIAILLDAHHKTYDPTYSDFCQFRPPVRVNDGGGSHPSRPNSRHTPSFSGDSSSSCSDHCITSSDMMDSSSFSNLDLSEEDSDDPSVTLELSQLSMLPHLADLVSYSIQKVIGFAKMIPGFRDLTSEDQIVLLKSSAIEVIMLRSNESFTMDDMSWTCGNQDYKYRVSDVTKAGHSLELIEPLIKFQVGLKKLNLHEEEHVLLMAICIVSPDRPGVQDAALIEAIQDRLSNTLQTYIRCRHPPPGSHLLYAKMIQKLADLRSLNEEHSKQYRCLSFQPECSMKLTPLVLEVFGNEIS
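The screen uses fluorescence polarization to detect compounds that interfere with recruitment of the SRC2-3 coactivator peptide to VDR; plates are read after 2 h at room temperature.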
Active calls of the source: *; u = inconclusive; & = joins results of further samples. On the % scale 0 is the no-effect control and ±100 the full control effect; potency means the concentration at half of the fitted maximal effect. These rows are one share of the data; rates above refer to the full screens.

VDR inh | molecule
-14% | CCOC(=O)CSC1=C(C#N)C(c2ccc(Cl)cc2)CC(=O)N1 (stereo unspecified)
-22% | CCOC(=O)c1ccc(NC(=O)Nc2ccon2)cc1
8% | COc1cccc(NC(=O)CN(C)C(=O)C2=COCCO2)c1
22% | S=C(NCCC(c1ccccc1)c1ccccc1)Nc1ccccc1Cl
-6% | Cc1ccc(S(=O)(=O)N(C)CC(=O)O/N=C(\N)c2cccnc2)cc1
4% | Cc1ccc2onc(CC(=O)N3CCN(c4cc(Cl)ccc4C)CC3)c2c1
u | c1ccc(CN=C2NN=C(c3ccccc3)CS2)cc1
-6% | CCN(CC)CCCN(Cc1cc2cc3c(cc2[nH]c1=O)OCCO3)C(=O)Nc1ccc(F)cc1
0% | COC(=O)C1C(OC)=CC(=O)C2CCCCC21 (stereo unspecified)
-12% | COc1ccc(CC(=O)NCC(=O)N/N=C/c2ccco2)cc1
3% | Cn1c(=O)[nH]c(=O)c2c1nc(N1CCCCCC1)n2CC(N)=O
19% | COc1ccnc(Oc2cccc(C(F)(F)F)c2)c1C(=O)N/C=N/OCc1ccccc1F
-4% | CCOC(=O)n1ccc(C(=O)Nc2ccccc2F)n1
5% | O=C(c1cccc(OCc2ccccc2)c1)N1CCOCC1
14% | CCC1CCCCN1C(=O)CCn1c(=O)oc2ccccc21 (stereo unspecified)
-13% | COc1cccc(/C(=N/O)C2CC2c2ccc(Cl)cc2)c1 (stereo unspecified)
2% | Cn1c(=O)c2c(nc(CO)n2C)n(C)c1=O
-5% | Cc1cccc(Oc2ccccc2NC(=O)CSCC(=O)Nc2cc(C)on2)c1
10% | Cc1cccc(C)c1N(CC(=O)NN=C1CCCCCC1)S(C)(=O)=O
2% | Cn1nc2c3cc(F)ccc3n(Cc3ccc(F)cc3)cc-2c1=O
5% | N=c1c(S(=O)(=O)c2ccc(Cl)cc2)cc2c(=O)n3ccccc3nc2n1C1CCCC1
5% | C=CCn1c(SCC(=O)N2CCN(c3ccc(F)cc3)CC2)nnc1-c1cccs1
u | COc1ccc(C(=O)c2ccccc2)c(O)c1O
1% | Cc1ccc(NC(=O)CN(C)Cc2cccs2)cc1Cl
0% | CC(C)C[C@@H](CC(=O)N[C@@H](CCC(=O)O)CC(=O)O)NC(=O)[C@@H]1CNCC[C@H]1NC(=O)C[C@H](CCCN)NC(=O)C[C@H](CO)NC(=O)[C@@H]1CCCC[C@H]1N
-9% | C=CCNS(=O)(=O)c1cccc(C(C)=O)c1
1% | CCCCOC(=O)Oc1ccc2c(=O)c(Oc3cccc(C)c3)coc2c1
-9% | CC(C)CCN(C(=O)c1csnn1)C(C(=O)NC1CCCCC1)c1ccc(F)cc1 (stereo unspecified)
0% | CCOC(=O)c1ccc(N2C(=O)C(CC(N)=O)N(NC(=O)c3cccc(F)c3)C2=S)cc1 (stereo unspecified)
5% | CC(=O)c1cn(CCOc2cc(C)ccc2C)c2ccccc12

The list continues:
VDR inh | molecule
-20% | CCCCCc1cc(=O)oc2c(C(CCN3CCN(c4ccccc4)CC3)c3ccc(N(C)C)cc3)c(OC)cc(OC)c12 (stereo unspecified)
-26% | COc1ccc(C2CC(=O)C3=C(C2)Nc2ncnn2C3c2ccccc2C)cc1 (stereo unspecified)
7% | Fc1cccc(-n2ncc3c2ncn2nc(-c4ccccc4Cl)nc32)c1
1% | COc1ccc(C)cc1NC(=O)C(Cc1ccccc1)NS(=O)(=O)c1cccs1 (stereo unspecified)
7% | CC(=O)Nc1ccc(N(CC(=O)NC2CCCCC2)C(=O)Cn2nnc(-c3ccccc3)n2)cc1
-14% | CCOC(=O)c1cc(-c2cccc([N+](=O)[O-])c2)n[nH]1
5% | CCOC(=O)c1c(S(=O)(=O)N2CCC(C(=O)Nc3ncccc3C)CC2)c(C)n(C)c1C
-19% | O=C(O)c1ccc(N=Cc2c(O)ccc3oc4c(c23)CCCC4)cc1
5% | Cn1ncc(Cl)c1C(=O)NCc1ccco1
16% | COc1cccc(Oc2ccc(C(F)(F)F)cc2NC(=O)c2cccc(F)c2)c1
19% | Cc1[nH]c2ccccc2c1C(=O)C(=O)N1CCN(c2cccc(Cl)c2)CC1
-19% | O=[N+]([O-])c1cccc(/C=N\N=C2c3ccccc3-c3ccccc32)c1O
10% | O=C(NNC(=O)C12CC3CC(CC(C3)C1)C2)c1ccncc1
-12% | CC(=O)SCC(C)C(=O)NCc1ccccc1 (stereo unspecified)
-25% | CCN(CC)C(=O)c1sc(NC(=O)c2ccc(C)c([N+](=O)[O-])c2)c(C#N)c1C
-6% | COc1ccc(OC)c(C2/C(=C(/O)c3cnn(-c4ccccc4)c3C)C(=O)C(=O)N2CCN(C)C)c1 (stereo unspecified)
-14%&-5% | Cc1noc(C)c1S(=O)(=O)N1CCC(C(=O)Nc2ccc(Br)cc2)CC1
-27% | CC(C)(C)NC(=O)C[C@H]1C[C@H](C(=O)N2CCCCC2)[C@@]2(CCc3ccccc3)c3[nH]c4ccc(Cl)cc4c3CCN2C1=O
-7% | CCOC(=O)C1(Cc2ccccc2)CCN(C2Cc3ccccc3C2)CC1
-5% | OCCN1CCN(C(=S)Nc2ccc(SC(F)F)cc2)CC1
-12% | N=c1c(S(=O)(=O)c2ccc(Cl)cc2)cc2c(=O)n3ccccc3nc2n1CC1CCCO1 (stereo unspecified)
-18% | N#Cc1ccc(Oc2cccc3cccnc23)c([N+](=O)[O-])c1
-15% | CCc1cc2c(N[C@@H](Cc3ccccc3)C(=O)O)ncnc2s1
-11% | O=C(c1ccoc1)N1CCCC(N2CCN(c3cccc(C(F)(F)F)c3)CC2)C1 (stereo unspecified)
-1% | NC(=O)C1CC(=O)N(c2ccc(OCc3ccc([N+](=O)[O-])cc3)cc2)C1 (stereo unspecified)
-20% | Cn1nc(-c2ccc(C(=O)Nc3cccc(C(F)(F)F)c3)cc2)c2ccccc2c1=O
1% | CCn1nnnc1SCC(=O)c1ccc(C)cc1C
2% | O=C(COC(=O)c1ccc(S(=O)(=O)N2CCCC2)cc1)Nc1ccc(Cl)cc1
-5% | Cc1nnc2sc(SCC(=O)Nc3ccc(Br)cc3)nn2c1=O
-12% | Cc1ccc(C2CC(=O)Oc3cc(C)cc(C)c32)cc1 (stereo unspecified)

(more compounds)
VDR inh | molecule
0%&7% | COc1ccc(-c2cc(=O)c3c(O)c(OC)c(OC)c(OC)c3o2)cc1
3% | O=C(O)CCC(=O)Nc1cccc(-c2nc3ccccc3o2)c1
-13% | CCCn1nc(NS(=O)(=O)c2cccc3nonc23)c2cc3cc(C)ccc3nc21
-23% | CC(=O)Nc1ccc(N2C(=O)CSC2c2ccccc2[N+](=O)[O-])cc1 (stereo unspecified)
6% | Cc1cccc(NC(=O)c2c(C)cc(C)nc2SCC(=O)c2ccccc2)c1
13% | CC12CCC3C(=CCc4cc(O)ccc43)C1CC(=NO)C2O (stereo unspecified)
2% | CC1CCN(CC(=O)NCc2ccccc2)CC1
-14% | Cc1ccc(NC(=O)c2cc(S(=O)(=O)N3CCc4ccccc43)cn2C)cc1
11% | O=C(COc1ccc([N+](=O)[O-])cc1)NNC(=O)Nc1ccc([N+](=O)[O-])cc1
-9% | CCOc1ccc(Cl)cc1CNc1nnnn1CC
-1% | CC(C)C(C)NC(=O)COc1nc2ccccc2nc1N(C)C1CCCCC1 (stereo unspecified)
2% | CCCC[C@@H]1CN=C(N)N1CCCC
u | COc1cccc(C(=O)NN/C(C)=C/C(=O)C(F)(F)C(F)(F)C(F)(F)F)c1
-8% | COC(=O)c1cccc(C23CC4(C2)[C@H](CN(Cc2ccc(-c5ccccc5)cc2)[C@@H]4c2ccccc2)C3c2ccc(C(F)(F)F)cc2)c1 (stereo partly specified)
-7% | CCCN(CCC)C(=S)Nc1cc(C(=O)OC)ccc1C(=O)OC
2% | Cc1ccccc1NC(=O)c1c2c(nc3ccccc13)C(=O)N(C1CCCCC1)C2
1% | Cc1ccc2cc3c(=O)n(C)cc(C=O)c3nc2c1
17% | COc1ccccc1C(=O)NC(=O)COC(=O)c1ncc(Cl)c(Cl)c1Cl
2% | CC(=O)Nc1ccc(S(=O)(=O)NNC(=O)C(=O)NNc2ccccn2)cc1
2% | COC(=O)/C(=N/Nc1ccccc1C)N1CCCc2ccccc21
28µM* | [N-]=C=C1C(=O)NC(=O)C([n+]2ccc(-c3ccncc3)cc2)C1c1ccccc1C(F)(F)F (stereo unspecified)
-2% | CSCCC(=O)Nc1ccc(C(C)=O)cc1
3% | O=C(C1CC1)N1CCC(c2nc(-c3ccc(S(=O)(=O)NCC4CCCO4)cc3)no2)CC1 (stereo unspecified)
20% | O=C(CCN1C(=O)/C(=C\c2cccs2)SC1=S)Nc1ccccn1
7% | Cc1cc(C)cc(NC(=O)C2CCN(c3nc4ccccc4nc3C(F)(F)F)CC2)c1
-11% | COc1ccc(S(=O)(=O)N2CCC(N3CCCCC3)CC2)cc1
3% | O=c1c(O)c(-c2ccccc2)oc2cc(O)cc(O)c12
0% | CC(C)Nc1nnc(SCC(=O)Nc2ccc3c(c2)C(=O)c2ccccc2C3=O)s1
-11% | COc1ccc(C)cc1NC(=O)CCNC(=O)Cn1cnc2ccccc2c1=O
-10% | O=C(COC(=O)/C=C/c1cccs1)Nc1nc(-c2ccccc2)cs1

Exported as a markdown table: part of the list above
| Molecule | VDR inh |
| --- | --- |
| CC(C)C(C)NC(=O)COc1nc2ccccc2nc1N(C)C1CCCCC1 (stereo unspecified) | -1% |
| CCCC[C@@H]1CN=C(N)N1CCCC | 2% |
| COc1cccc(C(=O)NN/C(C)=C/C(=O)C(F)(F)C(F)(F)C(F)(F)F)c1 | u |
| COC(=O)c1cccc(C23CC4(C2)[C@H](CN(Cc2ccc(-c5ccccc5)cc2)[C@@H]4c2ccccc2)C3c2ccc(C(F)(F)F)cc2)c1 (stereo partly specified) | -8% |
| CCCN(CCC)C(=S)Nc1cc(C(=O)OC)ccc1C(=O)OC | -7% |
| Cc1ccccc1NC(=O)c1c2c(nc3ccccc13)C(=O)N(C1CCCCC1)C2 | 2% |
| Cc1ccc2cc3c(=O)n(C)cc(C=O)c3nc2c1 | 1% |
| COc1ccccc1C(=O)NC(=O)COC(=O)c1ncc(Cl)c(Cl)c1Cl | 17% |
| CC(=O)Nc1ccc(S(=O)(=O)NNC(=O)C(=O)NNc2ccccn2)cc1 | 2% |
| COC(=O)/C(=N/Nc1ccccc1C)N1CCCc2ccccc21 | 2% |
| [N-]=C=C1C(=O)NC(=O)C([n+]2ccc(-c3ccncc3)cc2)C1c1ccccc1C(F)(F)F (stereo unspecified) | 28µM* |
| CSCCC(=O)Nc1ccc(C(C)=O)cc1 | -2% |
| O=C(C1CC1)N1CCC(c2nc(-c3ccc(S(=O)(=O)NCC4CCCO4)cc3)no2)CC1 (stereo unspecified) | 3% |
| O=C(CCN1C(=O)/C(=C\c2cccs2)SC1=S)Nc1ccccn1 | 20% |
| Cc1cc(C)cc(NC(=O)C2CCN(c3nc4ccccc4nc3C(F)(F)F)CC2)c1 | 7% |
| COc1ccc(S(=O)(=O)N2CCC(N3CCCCC3)CC2)cc1 | -11% |
| O=c1c(O)c(-c2ccccc2)oc2cc(O)cc(O)c12 | 3% |
| CC(C)Nc1nnc(SCC(=O)Nc2ccc3c(c2)C(=O)c2ccccc2C3=O)s1 | 0% |
| COc1ccc(C)cc1NC(=O)CCNC(=O)Cn1cnc2ccccc2c1=O | -11% |
| O=C(COC(=O)/C=C/c1cccs1)Nc1nc(-c2ccccc2)cs1 | -10% |

(listing goes on)
VDR inh | molecule
0% | Nc1nnc(C(c2ccccc2)c2ccccc2)s1
1% | COc1cc(NC(=O)COc2cc(O)c3c(c2)OC(C)(C)CC3=O)cc(OC)c1
15% | O=C(CSc1n[nH]c(-c2cccs2)n1)N1CCCC1
1% | O=C(CCCN1C(=O)c2cccc3cccc(c23)C1=O)N1CCN(c2ncccn2)CC1
2% | Nn1c(SCC(=O)N2CCCc3ccccc32)nnc1-c1ccc(Cl)cc1
-1% | CCOC(=O)c1ccc(NS(=O)(=O)c2ccc3c(c2)NC(=O)CCS3)cc1
-3% | COc1ccccc1C(=O)C1CCCN(C(=O)C2CCCC2)C1 (stereo unspecified)
18% | Oc1cccc2ccc(/C=C/c3c(F)cccc3Cl)nc12
11% | O=C(CNC(=O)c1cccc(F)c1)N/N=C/c1cccc([N+](=O)[O-])c1
-9% | COc1ccc([C@H]2CC(=O)C=C(c3ccc(OC(F)(F)F)cc3)C2)cc1
-16% | CC(C)C(=O)Nc1cccc(C(=O)N2CCCCC2C)c1 (stereo unspecified)
0% | NC(=O)C(Cc1ccccc1)NS(=O)(=O)c1ccc(N2CCCC2=O)cc1 (stereo unspecified)
17% | CC(/C=N/Nc1nc2ccccc2[nH]1)=C\c1ccccc1
-28% | COc1ccc(CCNS(=O)(=O)c2cccc([N+](=O)[O-])c2)cc1OC
-4% | COc1cccc(-c2nc(CS(=O)(=O)CC(=O)NCc3ccc4c(c3)OCO4)c(C)o2)c1
-12% | Nc1ncc(S(=O)(=O)NCc2ccccc2)cn1
-8% | CCCCCNC(=O)c1ccc2c(=O)[nH]c3c(C(=O)NCC4CCCO4)sc(=S)n3c2c1 (stereo unspecified)
u | NC(=S)NN=C(Cc1ccccc1)Cc1ccccc1
15% | COc1ccc(CCNC(=O)c2ccc3c(c2)ncn3-c2ccc(C(C)C)cc2)cc1OC
-1% | COc1cc(=O)n(C)c2c(OC[C@@H](O)C(C)(C)O)cccc12
17% | N#CCN1CCC/C1=C\[N+](=O)[O-]
-8% | CCOC(=O)C1CCN(C(=O)c2ccc(C)o2)CC1
-4% | COCc1cc(CN2CCCC2)c(O)c2ncccc12
-7% | Cc1cc(OCC(=O)NC2CC(C)(C)NC(C)(C)C2)c(C)cc1Br
-28% | COC(=O)c1ccccc1NC(=S)NC(NC(=O)COc1ccccc1)C(Cl)(Cl)Cl (stereo unspecified)
21%&-8% | COc1cc2c(=O)n(CCC(=O)NCC3CCCO3)c(=O)n(CC(=O)Nc3ccc(C)cc3)c2cc1OC (stereo unspecified)
-10% | O=C(CSc1ccc2ccccc2n1)c1ccc2c(c1)OCO2
